ALR H2O2 inh: blocks human ALR sulfhydryl oxidase activity; purified ALR, DTT oxidation, H2O2 HRP-luminol luminescence; inhibition, % (test concentration not listed); actives 3.8% (n = 290,000);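 active = mean and each replicate at 75% or more; inconclusive = only one of the two met; inactive = neither met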;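 also: stock transfer was 7.5 nL into about 7.5 µL; 0% = neutral wells and 100% = wells with inactivated enzyme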
Target sequence (P55789 whole entry, looked up): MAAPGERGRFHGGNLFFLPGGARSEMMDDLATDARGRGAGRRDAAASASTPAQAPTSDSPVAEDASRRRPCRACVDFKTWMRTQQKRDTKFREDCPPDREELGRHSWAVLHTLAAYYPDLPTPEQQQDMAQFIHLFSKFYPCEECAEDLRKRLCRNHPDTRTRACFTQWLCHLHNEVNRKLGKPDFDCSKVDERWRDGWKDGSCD
RanGTP-Imp inh: inhibitors of RanGTP-importin-beta interaction, primary screen, biochemical, FRET, CFP-Ran, YFP-importin-beta, homogeneous | cell-free CFP-Ran/YFP-importin-beta FRET ratio | inhibition, % (concentration not given with the values) | actives 1.1% (n = 300,000);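 active = most replicates above 15%; inconclusive = exactly half above 15%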;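 also: 0% = DMSO wells and 100% = Ran loaded with GDP instead of GTP; wells of about 40 µL received 100 nL stock; the first replicate is given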
T cruzi inh: blocks replication of Trypanosoma cruzi | inhibition, % (no concentration beside the values) | AID 1885 | actives 1.4% (n = 300,000) | T. cruzi beta-gal in NIH3T3, luminescence, 90 h;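 active = mean inhibition across valid replicates above about 55%, limit read from the data; inconclusive = mean below that limit but half or more replicates reach it; inactive = mean below it, under half of replicates reach it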;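 also: signal also drops with host cell toxicity which is not excluded here; 0% = plate median of DMSO wells and 100% = zero luminescence signal; higher percent means less beta-gal luminescence so fewer parasites; stock transfer was 50 nL into about 50 µL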
rRNA inh HTS: inhibits bacterial ribosomal RNA function over humanized ribosomes; E. coli WT GFP vs humanized-ribosome RFP mutants, fluorescence, 24 h; active compounds read low; DMSO median 0, no signal -100; GFP signal change (wild-type ribosome), % (no concentration beside the values); actives 1.6% (n = 350,000);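 active = significant combined selectivity score with lowered wild-type GFP, culture density cut under 30%, mutant RFP and density less affected; inactive = any of these conditions unmet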; also: one replicate is shown; some compounds called inactive have numbers as strong as hits
MLL AF4-AF9 inh: MLL-AF4/AF9 protein interaction inhibition; P42568; AlphaScreen, biotin-AF4 peptide binding to FLAG-AF9; inhibition, % at 10 µM; actives 0.47% (n = 350,000); AID 651704;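 active = every replicate reaching a set inhibition limit, whatever the replicate mean, cut at about 25% in these data; inconclusive = mean inhibition reaches that limit but some replicates miss it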;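 also: 0% = plate neutral control median and 100% = total signal loss; the record names both 10 and 1 µM as test concentration; the first replicate is given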
Target sequence (P42568 whole entry, looked up): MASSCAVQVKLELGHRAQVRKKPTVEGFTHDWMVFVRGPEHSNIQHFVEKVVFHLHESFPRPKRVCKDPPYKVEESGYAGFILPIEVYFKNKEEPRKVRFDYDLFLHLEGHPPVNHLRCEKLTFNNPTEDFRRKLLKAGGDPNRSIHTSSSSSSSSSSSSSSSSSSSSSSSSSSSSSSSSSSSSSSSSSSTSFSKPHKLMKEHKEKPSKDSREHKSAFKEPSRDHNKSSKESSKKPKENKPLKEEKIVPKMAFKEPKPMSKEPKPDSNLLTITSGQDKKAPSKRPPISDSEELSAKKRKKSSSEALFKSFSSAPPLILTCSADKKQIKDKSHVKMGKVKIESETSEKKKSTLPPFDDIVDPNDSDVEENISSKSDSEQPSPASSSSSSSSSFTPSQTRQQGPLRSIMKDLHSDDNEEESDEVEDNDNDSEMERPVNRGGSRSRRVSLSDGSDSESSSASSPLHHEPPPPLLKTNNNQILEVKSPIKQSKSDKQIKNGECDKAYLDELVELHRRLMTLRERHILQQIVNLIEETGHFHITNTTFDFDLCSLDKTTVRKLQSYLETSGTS
Beta apoptosis: beta cell apoptosis inhibition. protection from apoptosis, % (no concentration beside the values). AID 435005. INS-1E cytokine-induced death, ATP luminescence, 48 h; percent of positive-control rescue, neutral wells zero. actives 0.8% (n = 300,000);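 active = all replicates at 75% or more, or half of them and the mean; inconclusive = half reach 75% but not the mean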;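 also: 0% = cytokine-treated negative control wells and 100% = positive control rescue; higher means more ATP so stronger rescue from cytokine killing; wells of about 40 µL received 100 nL stock; the first replicate is given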
Calb FLC: affects C. albicans growth with fluconazole. C. albicans CaCi-2 (fluconazole-resistant clinical isolate) + fluconazole, Alamar Blue growth, 48 h. growth inhibition, % (test concentration not listed). actives 0.57% (n = 300,000). AID 1979;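 active = most replicates above 75%; inconclusive = exactly half above 75%; inactive = most below 75%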;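 also: all wells also contain fluconazole at 8 µg/ml as a sub-toxic cotreatment; 0% = median of DMSO wells and 100% = median of geldanamycin control wells; wells of about 8 µL received 7.5 nL stock; the first replicate is given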
FGF22 binding: shifts melting point of recombinant human FGF22; Q9HCT0; recombinant FGF22 thermal shift, SYPRO orange fluorescence; percent of sucrose octasulfate shift, DMSO zero; calls only at 9.99 µM; actives 1.5% (n = 340,000); AID 651658;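 active = melting point raised past a set limit in the mean and every replicate; inconclusive = no clear call; three in four hits are not shown here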
Target sequence (Q9HCT0 whole entry, looked up): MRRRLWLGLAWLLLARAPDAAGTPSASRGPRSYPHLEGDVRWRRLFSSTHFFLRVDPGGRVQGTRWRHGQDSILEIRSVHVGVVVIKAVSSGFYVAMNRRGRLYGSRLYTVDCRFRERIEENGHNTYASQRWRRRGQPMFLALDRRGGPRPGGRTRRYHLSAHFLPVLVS
rRNA inh HTS OD600: further read-out of rRNA inh HTS, marked with its call; OD600 change, %; measured here: OD600 growth;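 optical density of the mix in the first replicate; 0 = DMSO median and -100 = no signal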
rRNA inh HTS RFP: further read-out of rRNA inh HTS, marked with its call; RFP signal change, %; measured here: RFP humanized mutant strains;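 first replicate; 0 = DMSO median and -100 = no signal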
An asterisk follows results filed as active; i = inactive; ? = inconclusive; / = no result given.

SMILES | ALR H2O2 inh | RanGTP-Imp inh | T cruzi inh | rRNA inh HTS | rRNA inh HTS OD600 | rRNA inh HTS RFP | MLL AF4-AF9 inh | Beta apoptosis | Calb FLC | FGF22 binding
CC(CC(=O)N(C)c1c(N)n(Cc2ccccc2)c(=O)[nH]c1=O)c1ccccc1 (stereo not given) | -2 | 0.8 | -3 | 4 | 6 | -0.5 | 0.3 | -4 | 3 | i
O=C(COC(=O)CCN1C(=O)c2cccc([N+](=O)[O-])c2C1=O)NCc1ccccc1 | -10 | / | -13 | 9 | 9 | 0.0 | -1.1 | -3 | 14 | i
Cc1cc(C)c(NC(=O)Cn2nnc(C(=O)NCc3ccc4c(c3)OCO4)c2N)c(C)c1 | -2 | 0.7 | 1 | / | / | / | / | / | -7 | /
NC(=O)CC[C@@H]1NC(=O)[C@H](CO)NC(=O)c2cc([N+](=O)[O-])cc(I)c2NCC[C@@H](C(N)=O)NC(=O)[C@H](Cc2ccc(O)cc2)NC1=O | / | -4.5 | -20 | / | / | / | / | 0 | -9 | /
C=CCc1cccc(CNc2cnc3ccccc3c2)c1O | -13 | 0.2 | 3 | -30 | -30 | -4.2 | -5.6 | / | -5 | i
COc1ccc(-c2nc3n(n2)C(c2ccccc2Cl)C(C(N)=O)=C(C)N3)cc1 (stereo not given) | 9 | -0.8 | -3 | 3 | -4 | 0.0 | 2.3 | -3 | -4 | i
Cc1ccc(N2C(=O)C3CC3C2=O)cc1 (stereo not given) | -2 | 1.8 | -9 | 15 | 4 | -1.9 | -1.4 | -2 | 3 | i
COc1ccc(S(=O)(=O)NCC(=O)N(CC(=O)NCc2ccco2)Cc2ccccc2)cc1 | 0 | -0.8 | -2 | -2 | 5 | -2.2 | -2.1 | -3 | 24 | i
CC(=O)Nc1cc(C(=O)N(C)Cc2ccccc2)ccc1S(=O)(=O)c1ccc(C)cc1 | / | 3.3 | 4 | -1 | 6 | 2.8 | -1.7 | / | -4 | i
CN(C)/C=C/C(=O)c1ncc(C(F)(F)F)cc1Cl | -4 | ? | -15 | 3 | 4 | 0.4 | 2.1 | -1 | -25 | i
COc1ccc(NC(=O)c2ccc([N+](=O)[O-])s2)c([N+](=O)[O-])c1 | -10 | 0.8 | 64* | 7 | 15 | 2.3 | 1.0 | 3 | 13 | i
O=C(c1cccs1)N1CCN(S(=O)(=O)c2ccccc2)CC1 | -4 | 4.9 | -2 | / | / | / | / | -4 | 11 | /
CCOCCCNC(=O)C(c1ccc(C)cc1)N(Cc1ccc2c(c1)OCO2)C(=O)c1ccccn1 (stereo not given) | -8 | / | / | 6 | 6 | 3.5 | -0.6 | 0 | 8 | i
O=C1C2C3C=CC(CC3)C2C(=O)N1c1ccc([N+](=O)[O-])cc1 (stereo not given) | 1 | -0.7 | -4 | 15 | 13 | 1.8 | 0.0 | -2 | 11 | i
CN1C(=O)C2(C(C#N)=C(N)Oc3n[nH]c(-c4ccc(Cl)cc4)c32)c2ccccc21 (stereo not given) | -7 | 1.1 | -11 | / | / | / | / | -4 | -1 | /
O=C(CCCCCNc1nc(=S)[nH]c2ccccc12)NCc1ccccc1Cl | 1 | -1.0 | 29 | 2 | 0 | -7.4 | -2.7 | 20 | -6 | i
O=[N+]([O-])c1ccc(P(=O)(Cc2ccccc2)c2ccccc2O)cc1 (stereo not given) | 1 | 3.7 | 1 | -14 | -10 | 4.8 | 3.0 | -4 | 36 | i
Cc1cccc(NC(=O)CSc2nc(C3CC3)nc3ccccc23)c1 | -1 | 1.0 | -2 | 3 | 15 | -2.0 | -3.3 | 0 | -21 | i
COc1cc(CC(=O)NCCc2ccc(S(N)(=O)=O)cc2)cc(OC)c1OC | -4 | -0.2 | 10 | / | / | / | -6.4 | 1 | -4 | /
CCNc1nc(NCC)nc(SCCOc2ccc(C)cc2)n1 | 0 | -2.5 | 27 | / | / | / | / | 4 | -4 | /
CCOC(=O)Cn1nnc(-c2ccc(OCC(C)C)cc2)n1 | -2 | -2.5 | -14 | 1 | 7 | -2.4 | / | -11 | -21 | /
Cc1ccccc1CN1CCC(C(=O)Nc2ccc(Oc3cccnc3)cc2)CC1 | -10 | -1.0 | 7 | 6 | 4 | 0.3 | -3.0 | 0 | -11 | i
Cc1cccc(NS(=O)(=O)c2ccc(C(=O)NCCCN3CCCC3=O)cc2)c1C | -3 | 6.2 | -6 | -1 | -4 | -0.1 | -1.4 | / | 5 | i
O=C(CN1C(=O)CC(c2ccccc2)=Nc2ccccc21)NC1CCCCC1 | / | -2.1 | 2 | / | / | / | / | -5 | ? | /
O=C(O)c1ccc(CSc2ccccn2)cc1 | -2 | 6.8 | 15 | 8 | -2 | -4.5 | -1.8 | -2 | 15 | /
COc1ccccc1S(=O)(=O)NCc1ccc(C(=O)NC(C)c2ccccn2)cc1 (stereo not given) | -1 | / | / | 14 | 7 | 0.3 | -4.4 | -4 | / | i
Cc1ccc2[nH]cc(S(=O)(=O)c3ccc(C(C)C)cc3)c(=O)c2c1 | -21 | 4.8 | 25 | 17 | 15 | -3.3 | -0.4 | 0 | 0 | i
C=CCn1c(SCC(=O)O)nnc1-c1ccc(C(C)(C)C)cc1 | 32 | -2.0 | -22 | / | / | / | / | -3 | 33 | /
CCOC(=O)C1CCN(S(=O)(=O)c2ccc(CN3C(=O)c4cccnc4C3=O)cc2)CC1 | -1 | 2.4 | -21 | 4 | 8 | -1.9 | -2.2 | 0 | -5 | i
C=CCn1c(NCCO)nc2sc3c(c2c1=O)CCC3 | 86* | -5.4 | -6 | -4 | -2 | 5.3 | 3.1 | -2 | -4 | i
CN(C)c1cccc(C(=O)OCC(=O)NC2CCCC2)c1 | / | 4.6 | -4 | 1 | 4 | 1.0 | 1.8 | / | -7 | i
COc1ccc(OC)c(S(=O)(=O)NC(C)c2ccc(-n3ccnc3)cc2)c1 (stereo not given) | / | / | / | -4 | 2 | 0.8 | -9.6 | -6 | / | i
O=c1c(Cc2ccccc2)c(O)ccn1Cc1ccc2c(c1)OCO2 | 4 | -2.0 | 6 | -16 | -13 | 4.4 | -2.2 | -6 | -5 | i
Cc1[nH]c2ccc(C(=O)NC3CCCC3)cc2c1C | 37 | / | / | -4 | 6 | 3.0 | 1.5 | 3 | / | i
C=CCOC(=O)C1=C(C)NC(=O)NC1c1ccc(N(C)C)cc1 (stereo not given) | 8 | -13 | 3 | 6 | 10 | -2.1 | -0.7 | 0 | 5 | i
Cc1ccc(S(=O)(=O)Nc2ccccc2C(=O)Nc2sccc2C(=O)NN(C)C)cc1 | 67 | 0.3 | -8 | -13 | -35 | -9.7 | 3.8 | 0 | -4 | i
Cc1onc(-c2ccccc2)c1-c1ccnc(N)n1 | / | 0.1 | -17 | -1 | 1 | -0.1 | -2.2 | -10 | 46 | i
Cc1ccc(C)c(NC(=O)C(=O)NCc2ccccn2)c1 | 4 | 1.9 | -14 | 9 | 10 | 1.2 | -0.5 | 0 | ? | i
Cc1ccc(S(=O)(=O)NCC(C)n2nc(C)cc2C)cc1 (stereo not given) | / | -2.7 | -17 | 4 | 5 | 0.6 | 1.0 | -5 | 2 | i
O=C(O)C(Cc1ccccc1)N1C(=O)c2cccc3cccc(c23)C1=O (stereo not given) | -4 | 8.2 | -21 | 1 | -5 | -2.7 | 0.2 | -6 | -1 | i
COc1ccc(C2=Nn3c(nnc3-c3cccnc3)SC2)cc1 | / | 3.1 | 20 | 6 | 1 | -0.8 | / | / | -12 | /
COCCNC(=O)c1ccc(N2CC3CC(C2)c2cccc(=O)n2C3)c(NC(=O)c2cc(OC)cc(OC)c2)c1 (stereo not given) | 13 | -2.0 | -13 | 14 | 18 | 5.5 | 1.5 | -5 | 32 | i
O=C(O)CCN1CC2([N+](=O)[O-])CC=C(OCCO)C([N+](=O)[O-])(C1)C2 (stereo not given) | 5 | -5.4 | -3 | 9 | 9 | 2.7 | -0.6 | -4 | 17 | i
CCOC(=O)C1(Cc2cccc(F)c2)CCN(C(=O)c2cscn2)CC1 | -5 | 3.6 | 8 | -11 | -11 | -1.7 | 0.1 | -1 | 11 | /
Cc1ccc(C)c(NC(=O)C2CCCN(S(=O)(=O)c3cccnc3)C2)c1 (stereo not given) | 6 | 6.7 | -3 | 3 | 5 | 0.7 | -7.1 | -2 | 11 | i
CN(C)/C(CN1CCCCC1)=C1\N=C(c2ccccc2)OC1=O | 15 | 3.1 | -19 | 12 | -4 | 2.7 | ? | -4 | -2 | i
COc1ccc(NC(=O)C2CCC(CNS(=O)(=O)c3csc(C(N)=O)c3)CC2)cc1OC (stereo not given) | -18 | 2.4 | 4 | 4 | 15 | 1.5 | 0.7 | -2 | 5 | i
Cc1cccc(C)c1OCC(=O)N/N=C/c1cccn1C | -1 | -0.2 | 1 | / | / | / | / | -6 | -4 | /
COc1ccc(S(N)(=O)=O)cc1C(=O)OCC(=O)N1c2ccccc2NC(=O)C1(C)C | -2 | / | / | 3 | 1 | 0.5 | 0.6 | -3 | / | i
O=C(NCc1ccc2c(c1)OCO2)C1CCC(=O)N1C1CCCCC1 (stereo not given) | -6 | 0.8 | -13 | -23* | 7.2* | 10.0* | 3.3 | -5 | -5 | i
O=C(CNc1ccccc1F)Nc1cc(S(=O)(=O)N2CCCCC2)ccc1Cl | -13 | / | / | -5 | -24 | -5.9 | 1.6 | -4 | / | i
O=C1CCC/C=C/C[C@@H](CC(=O)N(CCO)Cc2ccccc2)C(=O)NC[C@@H](c2ccccc2)O1 | -6 | / | / | 0 | -8 | 10 | 0.6 | -9 | / | i
COc1ccc(C(CC(=O)O)NC(=O)c2ccco2)cc1 (stereo not given) | -15 | -2.4 | -9 | / | / | / | / | -4 | -4 | /
CCc1c(-c2ccccc2)[n+](=O)c2c(n1[O-])CCC2 | -4 | 3.5 | -22 | 19 | 10 | 2.1 | -2.1 | -5 | -1 | i
COc1ccc2oc(=N)c(C(=O)Nc3ccc(Br)cc3)cc2c1 | 63 | 1.0 | -1 | 10 | 18 | 1.4 | 2.1 | 5 | 11 | i
COc1ccc(COC(=O)c2cc(S(=O)(=O)N3CCCCC3)ccc2N2CCOCC2)cc1 | -1 | 2.7 | 4 | -1 | 3 | 3.4 | -1.5 | 3 | -8 | i
O=C(CNC(=S)N(Cc1ccccc1)Cc1ccccc1F)NCc1ccccc1 | / | -1.8 | 17 | -29 | -44 | -2.5 | -1.8 | 1 | 5 | i

Entries of single compounds, quoted from the list. Values in the order: ALR H2O2 inh, RanGTP-Imp inh, T cruzi inh, rRNA inh HTS, rRNA inh HTS OD600, rRNA inh HTS RFP, MLL AF4-AF9 inh, Beta apoptosis, Calb FLC, FGF22 binding
`COc1ccc(C(CC(=O)O)NC(=O)c2ccco2)cc1` (stereo not given) as listed: -15, -2.4, -9, /, /, /, /, -4, -4, /
`O=C(CNC(=S)N(Cc1ccccc1)Cc1ccccc1F)NCc1ccccc1` as listed: /, -1.8, 17, -29, -44, -2.5, -1.8, 1, 5, i

Compound activity as filed in PubChem BioAssay.

An excerpt. The share of hits here may be higher or lower than overall.
